Assay outcomes: PubChem, National Center for Advancing Translational Sciences (NCATS)
gsp antag: gsp mutant antagonism. gsp-mutant cells, cAMP HTRF, 30 min; control for the full effect not named in the record. Potency, µM (doses to about 76.9 µM), inactives show at the top dose activity change, negative = inhibition, actives largely listed as inhibitors. actives 0.4% (n = 340,000). AID 624288; active = falling curve of any shape with a large fitted effect; inconclusive = falling curve, mostly with a smaller effect; inactive = flat or rising curve; cell line not stated here;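 also: intracellular cAMP measured with PDE inhibitor Ro 20-1724 present during compound exposure; potency is read from the fitted curve at half-maximal effect; % is scaled to controls: 0 for no effect and ±100 for the full control effect; nearly all actives have a fitted effect of over 65% in size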
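HTRF cAMP measurement after 30 min RT detection following 30 min, 37C compound treatment alongside […] (added as 300 uM solution) in G418-selected cells seeded at 2000/well and grown 16–24 h.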
gsp agonist: gsp mutant agonism | Potency, µM (titrated, usually from 76.9 µM), for the others: at the highest dose activation (cAMP increase), most hits filed as activators | actives 0.13% (n = 340,000) | gsp mutant cells, cAMP HTRF, 30 min; control for the full effect not named in the record; active = well fitted activation curve with a large enough effect; inconclusive = small, poorly fitted or top-dose-only effect, or another doubt; inactive = no such curve, though single readings can be large or run the other way; cell line not stated here;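 also: phosphodiesterase inhibitor Ro 20-1724 added with compounds to block cAMP breakdown; potency is read from the fitted curve at half-maximal effect; nearly all actives have a fitted effect of over 60% in size; about a fifth of the inactives were tested at one dose only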
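Cells in DMEM/10% FBS with G418 were pretreated with compounds in DMSO plus […] (300 uM stock) for 30 min at 37C. cAMP was measured by HTRF (cAMP-d2 plus anti-cAMP antibody-K) after 30 min at room temperature.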
CtBP-E1A inh: CtBP/E1A binding inhibition | AlphaScreen GST-E1A/His-CtBP binding, 1536-well; hits give low values; control for the full effect not named in the record | activity change, % (no concentration beside the values) | actives 0.49% (n = 340,000); in the data active means activity change below about -65%; inconclusive means about -30% to -65%; inactive means above about -30%; also: % is scaled to controls: 0 for no effect and ±100 for the full control effect; compound concentration not given in the record
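GST-E1A and His-tagged CtBP (125 nM each as 5X stock) were preincubated with pin-transferred compound for 2 h at 37 °C in the dark, then glutathione donor and nickel acceptor beads were added for 1 h before AlphaScreen reading.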
TRPV1 potentiator: enhances activation of the human vanilloid receptor TRPV1; TRPV1-expressing cells, Fluo-8 calcium influx, capsaicin EC20 potentiation; host cell line not named in the record; control for the full effect not named in the record; potentiation, % at 8.33 µM; actives 0.02% (n = 320,000); active means potentiation above 80%; inconclusive means 30% to 80%; inactive means below 30%; also: 0% is about no effect
Target sequence (Q8NER1 whole entry, looked up): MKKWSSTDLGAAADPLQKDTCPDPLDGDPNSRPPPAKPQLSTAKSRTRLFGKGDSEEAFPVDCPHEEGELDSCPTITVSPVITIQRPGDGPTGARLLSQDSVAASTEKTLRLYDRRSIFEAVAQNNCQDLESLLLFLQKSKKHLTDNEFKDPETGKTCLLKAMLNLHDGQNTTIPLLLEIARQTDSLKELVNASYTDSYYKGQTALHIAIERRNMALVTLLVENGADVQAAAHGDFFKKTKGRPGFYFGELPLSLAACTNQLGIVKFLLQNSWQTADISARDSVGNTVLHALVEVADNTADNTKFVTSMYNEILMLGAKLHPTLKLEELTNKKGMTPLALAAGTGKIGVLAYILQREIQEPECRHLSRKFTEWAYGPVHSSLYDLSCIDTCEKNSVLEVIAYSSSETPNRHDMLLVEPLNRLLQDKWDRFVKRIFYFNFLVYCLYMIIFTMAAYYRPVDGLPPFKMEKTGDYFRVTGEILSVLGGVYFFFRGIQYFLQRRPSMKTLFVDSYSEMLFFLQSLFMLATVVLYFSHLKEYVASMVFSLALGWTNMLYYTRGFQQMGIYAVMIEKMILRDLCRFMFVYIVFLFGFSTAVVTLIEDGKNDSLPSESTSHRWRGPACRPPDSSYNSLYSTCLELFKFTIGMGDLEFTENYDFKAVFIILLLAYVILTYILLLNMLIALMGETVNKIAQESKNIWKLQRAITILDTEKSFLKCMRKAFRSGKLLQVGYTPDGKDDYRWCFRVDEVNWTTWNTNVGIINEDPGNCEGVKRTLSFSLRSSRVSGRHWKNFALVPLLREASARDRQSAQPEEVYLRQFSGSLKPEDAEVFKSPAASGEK
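Fluo-8 calcium influx in TRPV1-expressing cells, kinetic read (ex 480/em 520 nm). Compound added and read 3 min for agonist activity, followed by capsaicin at EC20 final and 2 min further read for enhancement.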
Menin MLL FP FL: menin-MLL binding inhibition, fluorescein peptide | Fluorescence polarization, fluorescein-MLL peptide displacement from menin | FP activity change, % at 61.4 µM | 290,000 tested, under 10 active | AID 1766; inconclusive = falling polarisation curve, or a change in total fluorescence; inactive = total fluorescence flat and polarisation flat or rising; no compound was filed as active; the % refers to the polarisation; negative = inhibition;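 also: % of control where 0% means no effect; inhibitors lower the polarisation; unlabelled MLL peptide was the positive control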
ClpP mod: qHTS Assay for Activators of ClpP; ATP-dependent Clp protease proteolytic subunit (Bacillus subtilis (strain 168)), P80244; purified B. subtilis ClpP, FRET peptide cleavage, 20 min; Potency, µM (top dose mostly 57.5 µM), inactives show at the highest dose activity change, negative = active; actives 1.9% (n = 340,000); active = well fitted falling curve with a large enough effect; inconclusive = small, poorly fitted or top-dose-only effect; inactive = no such curve, though single readings can be large or run the other way; also: potency is read from the fitted curve at half-maximal effect; the source files actives as falling curves though it sought activators and does not explain the sign; nearly all actives have a fitted effect of over 65% in size; many hits overshoot -100%
Target sequence (P80244 whole entry, looked up): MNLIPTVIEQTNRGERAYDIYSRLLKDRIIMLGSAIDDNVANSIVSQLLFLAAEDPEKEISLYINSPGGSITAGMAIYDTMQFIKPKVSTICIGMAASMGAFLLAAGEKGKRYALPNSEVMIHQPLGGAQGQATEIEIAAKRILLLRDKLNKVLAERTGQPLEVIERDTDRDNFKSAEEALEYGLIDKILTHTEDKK
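Purified B. subtilis ClpP, 10 microg/mL final in Tris/HCl pH8 with KCl, BSA, glycerol and Tween-20, cleaved an Abz/nitrotyrosine-quenched decapeptide. Fluorescence (ex 320, em 430) was read at 0 and 20 min at room temperature. Delta was normalized to 5.8 microM ADEP and DMSO/no-enzyme controls.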
Sfp inh: inhibitors of Bacillus subtilis Sfp phosphopantetheinyl transferase | Potency, µM, inactives show max response, negative = inhibition, most hits filed as inhibitors | Q9F4F7 | Biochemical Sfp PPTase activity, qHTS | AID 1490 | actives 3.5% (n = 310,000); active = well fitted inhibition curve with a large enough effect; inconclusive = small, poorly fitted or top-dose-only effect, or another doubt; inactive = no such curve, though single readings can be large or run the other way;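 also: the enzyme is Sfp with the accession as filed and its product quenches rhodamine fluorescence; potency is read from the fitted curve at half-maximal effect; 0% = enzyme reaction without inhibitor and -100% = no enzyme wells; top concentration of the series not given in the record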
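Step 1, compound plus 15 nM Sfp-PPTase, 15 min, room temperature. Step 2, add rhodamine-CoA (5 uM) and BHQ-2-YbbR (12.5 uM). Step 3, read 525/598 nm fluorescence at 0 and 30 min.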
Active calls of the source: *; ? = inconclusive; . = not tested or not shown; & = joins results of further samples; [ ] = remark or other dose. Compounds were not picked by outcome, and some 5.3% of all compounds hit somewhere here.

SMILES	gsp antag	gsp agonist	CtBP-E1A inh	TRPV1 potentiator	Menin MLL FP FL	ClpP mod	Sfp inh
CC(C)C(NC(=O)c1ccccc1F)C(=O)Nc1nccs1 (stereo not given)	8%	45%	.	7	0.7	0.4%	11%
COc1ccc2occ(C(C)=O)c2c1	2%	3%	0	-12	0.2	-2.8%	3%
O=C(CSc1nnnn1-c1ccc(F)cc1)Nc1ccccc1F	-5%	3%[15.4 µM]	5	-6	-1.9	0.6%	-7%
CCOC(=O)c1sc(C)c2c(=O)n(Cc3ccc(Cl)cc3)c(C)nc12	-6%	24%	0	10	0.4	-53%	3%
CCc1ccc(NC(=O)C2CCCN(S(=O)(=O)c3c(C)[nH]c(=O)[nH]c3=O)C2)cc1 (stereo not given)	2%	?	-3	?	3.9	-2.0%	-4%
CCCc1cc(=O)oc2cc(OCC(=O)OC)cc(OCC(=O)OC)c12	.	.	.	-15	1.5	.	16%
CN(C)/C=C1\C(=O)ON=C1c1ccccc1	-8%	14%[15.4 µM]	2	8	-2.0	.	10%
CCCN1CCCc2ccccc21	-5%	?	4	-6	0.7	-3.3%	3%
COc1ccc2oc(/C=C/N(C)C)c(C(=O)c3ccc(Cl)cc3)c2c1	-26%	-22%	-10	19	12	-4.3%	-6%
CC(C)(C)c1ccc(-n2ncc3c2CCCC3NC(=O)c2cnccn2)cc1 (stereo not given)	-6%	2%	-1	-7	-1.9	.	-4%
COc1cc(OC)cc(C(=O)NC(=S)Nc2ccc3c4c(cccc24)CC3)c1	0%	-1%	-12	-12	5.1	3.6%	?
N#Cc1ccc(CSc2nnc(Cc3cccs3)n2Cc2ccco2)cc1	3%	-7%	-2	-2	13	-6.8%	14µM*
C[C@@H](O)CNC(=O)c1[nH]cnc1C(=O)N[C@H](C)c1ccccc1	.	-47%[inhibitor]	-2	.	.	0.5%	.
Cc1sc2ncn(CC(=O)OC(C)C)c(=O)c2c1C	.	.	.	1	-0.5	.	12%
O=C(O)CCNc1ccc2c(c1)OCCO2	-8%	-39%	1	4	?	-16%	50µM*
S=c1[nH]nc(-c2ccccc2)n1/N=C/c1ccc(-c2ccccc2Cl)o1	-41%	-7%	-21	-8	4.1	2.4%	?
COc1ccc(-c2ocnc2C(=O)N2CCN(C(=O)C(c3ccccc3)c3ccccc3)CC2)cc1	25µM*	-8%[15.4 µM]	-8	2	0.8	.	-10%
CC(=O)c1cc2c(cc1NS(=O)(=O)c1ccc(F)cc1)OCO2	-4%	-4%[15.4 µM]	7	3	-6.7	.	-10%
COc1ccc(C2=NOC(C(=O)Nc3cc(C)nn3-c3ccccc3)C2)cc1OC (stereo not given)	14%	-24%	2	1	1.4	-1.3%	16%
O=C1CC(SCc2nc3ccccc3[nH]2)C(=O)N1c1ccc(Cl)cc1 (stereo not given)	-8%	26%	-20	-8	2.8	3.9%	-8%
COc1ccc(C(C)NC(=O)c2ccncc2)cc1OC (stereo not given)	11%	?	3	-35	2.8	-1.1%	10%
COc1ccc(Cc2nnc(SCC(=O)NC3(C#N)CCCCC3)n2N)cc1	7%	-7%[15.4 µM]	-7	-1	.	.	.
Cc1ccc(CN2CCN(C(=O)C3CCC3)CC2)cc1	4%	-4%	1	-20	4.8	-1.5%	-5%
COc1ccc2c(c1)CCc1cnoc1-2	8%	-7%[15.4 µM]	9	.	.	0.8%	.
Cc1ccc(S(=O)(=O)N(CC(=O)NCCSc2ccccn2)c2cc(C)cc(C)c2)cc1	?	?	-2	-14	-0.7	-2.7%	16%
CCn1cc(C(=O)NCCCOC)c2cc(OC)c(OC)cc2c1=O	15%	2%	2	9	-5.8	-26%	-2%
COCCNC(=O)C(OC(=O)CC1Sc2ccccc2NC1=O)c1ccncc1 (stereo not given)	0%	20%	26	6	2.4	0.8%	12%
CC(Nc1ccc(F)cc1F)C(=O)NC(=O)NC1CCCCC1 (stereo not given)	1%	14%[15.4 µM]	.	-13	-4.8	.	-3%
COC(=O)NC(NC(=S)Nc1ccc([N+](=O)[O-])cc1)C(Cl)(Cl)Cl (stereo not given)	-19%	-26%	13	8	-0.5	1.6%	-5%
CCCNc1sc(S(=O)(=O)CCC)nc1S(=O)(=O)c1ccc(C)cc1	-6%	20%	6	-28	-0.8	-1.3%	-2%
CCc1ccc(NC(=O)CCn2nc(C)c(S(=O)(=O)N3CCCCC3)c2C)cc1	3%	1%	-13	-9	-11	0.5%&-2.1%	23%
COc1cc(NS(=O)(=O)c2ccc(NC(=O)c3cccs3)cc2)nc(OC)n1	22µM*	19%[15.4 µM]	-6	18	.	.	6%
Nc1nc(Cl)nc2c1ncn2[C@H]1C[C@H](O)[C@@H](CO)O1	-6%	.	-15	7&7	-1.1&-3.6&-2.2&2.8	-3.5%	18%&6%&22%&7%
CCc1nccn1S(=O)(=O)c1cc(OC)c(Cl)cc1OC	7%	-30%	13	0	0.5	-0.3%	9%
C#CCNC(=O)C1=C[C@H](C2CC2)C[C@H](OCCCCO)O1	2%	.	7	28	-1.5	-3.8%	19%
Cc1ccc(C(=O)COc2ccccc2-c2ccccc2)cc1C	3%	?	27	14	4.3	1.0%	-8%
N#CCCn1nc(-c2ccccc2)c2ccccc2c1=O	-6%	?	-1	-6	-2.9	-0.6%	9%
CC(=O)N(CCO)Cc1cc2cc(C)cc(C)c2[nH]c1=O	15%	3%	3	4	7.7	?	-15%
O=C(NCCS(=O)(=O)c1ccc(Br)cc1)c1ccccc1	10%	-11%	-3	-8	-6.7	-3.2%	11%
COCC(C)n1c(C)cc(C(=O)COC(=O)c2nc3nc(C)cc(C)n3n2)c1C (stereo not given)	-8%	-5%	-1	2	-0.3	1.6%	14%
NC(=O)c1nn(-c2ccc(Oc3ccccc3)cc2)c(=O)cc1O	3%	-10%	7	4	-0.7	.	13%
CCN(CC)C(=O)C(c1ccccc1)S(=O)(=O)N1CCOCC1 (stereo not given)	.	-14%	0	.	.	-3.7%	.
COc1cccc(CNCC(=O)NC(=O)NC2CCCC2)c1	1%	?	5	.	.	.	.
c1ccc(CNc2ncn[nH]2)cc1	.	-7%	-17	.	.	-1.8%	.
CCOc1ccc(S(=O)(=O)N2c3ccccc3CC2C)cc1 (stereo not given)	16%	?	24	-7	-0.6	0.8%	?
O=C(Oc1ccc(N2C(=O)CCC2=O)cc1)c1ccccc1Cl	1%	16%	-1	12	1.5	-2.1%	4%
Cc1cccc(OCc2nnc(SCC(=O)NCCc3ccccc3)o2)c1	4%	-59%[inhibitor]	0	8	7.9	0.6%	20%
Cc1ccc(S(=O)c2snnc2C)cc1 (stereo not given)	-2%	1%[15.4 µM]	6	10	0.9	.	-2%
c1ccc(CCCNc2ncnc3nc[nH]c23)cc1	5%	-60%[inhibitor]	2	6	-2.9	0.1%&-0.8%	-19%
CN1C(=O)/C(=C/c2ccc(O)c([N+](=O)[O-])c2)NC1=S	?	-21%	0	0	2.4	.	1%

Continuation.
SMILES	gsp antag	gsp agonist	CtBP-E1A inh	TRPV1 potentiator	Menin MLL FP FL	ClpP mod	Sfp inh
COc1ccc(S(=O)(=O)N2CCC(C(=O)N[C@@H](C)C(=O)NC3CCCC3)CC2)cc1	16%	19%	3	29	.	0.5%	2%
Cc1cc(S(=O)(=O)Nc2cccc([N+](=O)[O-])c2)c(C)s1	-5%	1%	7	6	-0.8	0.5%	16%
CC1CCCCC1NC(=O)C1CCN(S(=O)(=O)N2CCCCCC2)CC1 (stereo not given)	12%	-5%	1	15	1.6	-0.3%	-10%
Cc1cccc(Nc2nc(-c3ccc(O)c(O)c3)cs2)n1	-7%	-21%	-13	5	0.0	.	-12%
CCOC(=O)COn1c(-n2nc(C)cc2C)nc2ccccc2c1=O	4%	-4%[15.4 µM]	-13	-8	-1.6	-3.8%	4%
CN1CCN(C(=O)C2CCN(S(=O)(=O)c3ccc4c(c3)oc(=O)n4C)CC2)CC1	12%	16%	1	1	0.7	-7.5%	12%
Cc1cc(C(=O)CCC(=O)Nc2ccc(C(N)=O)cc2)c(C)s1	.	-2%	6	.	.	-0.3%	.
O=C(NCC(c1ccco1)N1CCc2ccccc2C1)c1cccc(F)c1 (stereo not given)	-3%	9%[15.4 µM]	-3	-10	.	0.5%	.
CCn1c(CC(=O)Nc2ccc(C)c(Cl)c2)nnc1SCC(=O)Nc1nc(C)cs1	6%	-47%[inhibitor]	2	-1	1.6	0.1%	12%
CC(Oc1ccc(Br)cc1)C(=O)N1CCC(C(N)=O)CC1 (stereo not given)	8%	?	3	1	-7.5	.	7%
Cc1ccccc1OCCC(=O)OCC(=O)NCCNC(=O)COC(=O)CCOc1ccccc1C	-1%	5%[15.4 µM]	-1	-2	.	.	.
N#CNC(=Nc1ccc(Cl)cc1)Oc1ccccc1	2%	-5%[15.4 µM]	-8	-10	3.6	.	2%
O=C(C(=O)N1CCOCC1)c1cn(CC(=O)N2CCCCC2)c2ccccc12	-3%	-6%	7	1	.	-1.7%	24%
c1ccc(OCCCCn2cnc3ccccc32)cc1	-27%	0%	7	-8	-2.1	-0.4%	10%
CCOC(=O)C(NC(C)=O)C(O)c1ccc([N+](=O)[O-])cc1 (stereo not given)	1%	-45%[inhibitor]	2	-19	-0.5	.	12%
CCc1ccccc1NC(=O)CNC(=O)c1ccccc1OCc1c(C)noc1C	3%	16%	16	8	.	-0.8%	.
O=C(/C=C/c1ccccc1Cl)NC1CCS(=O)(=O)C1 (stereo not given)	6%	0%[15.4 µM]	-2	-17	2.4	.	5%
COc1cc(/C=N/NC(=O)Nc2cccc3nsnc23)cc(OC)c1OC	-4%	4%	?	-8	1.1	4.2%	-20%
CN1C2CCC1CC(NC(=O)CSc1ccc(Cl)cc1)C2 (stereo not given)	3%	10%	.	-9	-0.9	-2.1%	11%
Cc1onc(-c2ccncc2)c1C(=O)O	-9%	-2%	5	5	0.9	2.7%	-7%
